# Sa growth inh = S. aureus growth inhibition | relative growth, % (concentration not given with the values) | S. aureus RN4220 growth, OD600, 20 h, 42 °C; hits give low values | 170,000 tested, 0.53% active | AID 720641;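 active means growth at 42 °C up to 50% and 20 or more points under that at 30 °C, or under 10% at both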;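 further: 300 nL library stock went into each well; scaled to the means of positive and negative controls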
# HCMV NEC inh = cytomegalovirus nuclear egress complex inhibition | HTRF UL50-UL53 interaction, normalized percent inhibition | inhibition, % (no concentration beside the values) | 190,000 tested, 0.15% active | AID 1918969;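 active means both replicates at 50% or more, plus weaker picks with an unusually low signal ratio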;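 further: stock transfer was 100 nL into about 20 µL; 0% = negative control wells and 100% = wells with untagged competitor protein; inactives centre near -12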
# GIV Gai3 FP = blocks GIV peptide binding to rat Galpha-i3. P08753. AID 1224905. 210,000 tested, 0.42% active. percent of control (FP), % (concentration not given with the values). Galpha-i3/FITC-GIV peptide fluorescence polarization, 90 min; hits give low values; scaled: aluminum fluoride 0%, vehicle 100%;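 active means replicate mean at 85% of control or lower, very high polarization wells dropped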;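 further: wells of about 15 µL received 100 nL stock; the first replicate is given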
# Target sequence (P08753 whole entry, looked up): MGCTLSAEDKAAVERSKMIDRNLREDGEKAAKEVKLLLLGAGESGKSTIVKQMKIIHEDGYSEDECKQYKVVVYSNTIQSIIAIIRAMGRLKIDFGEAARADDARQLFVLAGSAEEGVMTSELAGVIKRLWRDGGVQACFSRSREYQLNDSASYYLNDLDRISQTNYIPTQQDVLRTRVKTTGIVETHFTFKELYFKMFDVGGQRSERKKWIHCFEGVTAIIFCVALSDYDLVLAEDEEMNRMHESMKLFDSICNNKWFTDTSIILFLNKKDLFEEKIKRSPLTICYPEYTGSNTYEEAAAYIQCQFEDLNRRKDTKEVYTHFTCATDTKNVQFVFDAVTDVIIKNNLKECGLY
# Sa growth inh second temp = recorded beside Sa growth inh, whose call it bears; relative growth, %; measured here: growth at 30 °C;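 optical density after 20 h as mean of two plates; 100% = untreated growth and lower means inhibition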
# Numbers without * were called inactive; · = not tested or not shown; & = joins results of further samples.
SMILES	Sa growth inh	Sa growth inh second temp	HCMV NEC inh	GIV Gai3 FP
Cc1cccc(-n2c(=O)c3ccccc3n(Cc3ccccc3C#N)c2=O)c1	101.6	94.8	3.3	106.7
CCN1CCCC1CNC(=O)c1ccc2c(c1)[nH]c(=O)n2Cc1ccc(OC)cc1 (stereo not drawn)	97.2	87.3	0.9	99.8
CCOc1ccc(NC(=O)c2cc3c(=O)n(C)c4ccccc4c3n2C)cc1	115.5	101.1	·	104.6
CCCCNC(=O)c1cc2ccccc2s1	98.9	91.2	13.2	112.7
O=C(Cc1ccc(-n2cccc2)cc1)NC1CCCCCC1	99.9	78.2	-17.2	109.3
Cc1ccc(C(=O)n2cnnc2N)cc1Cl	99.5	87.4	4.2	98.3
Cc1cc(-c2ccc(S(=O)(=O)N3CCN(c4ccc(Cl)cc4)CC3)s2)on1	102.8	100.4	·	104.1
CCCc1cc(N2CCN(c3ccc(OC)cc3)CC2)n2cnnc2n1	97.8	84.2	-17.4	97.7
Cc1ccccc1NC(=O)C1C(=O)N(CCO)C2(C)CC1c1ccccc1O2 (stereo not drawn)	93.2	92.0	-1.4	105.6
CC(c1ccccc1)N1C(=O)CC(Sc2ncccc2C(=O)O)C1=O (stereo not drawn)	100.8	97.8	-10.7	98.3

# Continued; it opens with the 2 that closed the last part.
SMILES	Sa growth inh	Sa growth inh second temp	HCMV NEC inh	GIV Gai3 FP
Cc1ccccc1NC(=O)C1C(=O)N(CCO)C2(C)CC1c1ccccc1O2 (stereo not drawn)	93.2	92.0	-1.4	105.6
CC(c1ccccc1)N1C(=O)CC(Sc2ncccc2C(=O)O)C1=O (stereo not drawn)	100.8	97.8	-10.7	98.3
COc1ccc(Cl)cc1NC(=O)CSCc1cnn(-c2ccccc2)c1-n1cccc1	89.0	92.1	-16.8	101.2
CC1(C)C(=O)Nc2ccccc2N1C(=O)COc1ccc(C#N)cc1	82.6	85.7	-24.8	·
Cc1ccc(Nc2sc(C(=O)c3ccccc3)c(N)c2C(=O)Nc2ccc(Cl)cc2)cc1	122.2	76.3	·	108.3
CCc1nnc(NC(=O)c2nc(SCc3ccccc3F)ncc2Cl)s1	81.7	46.8	-26.5	100.4
C/C(N)=C(/C#N)C(=O)CSc1nncn1-c1ccccc1	96.8	99.7	0.3	·
C=CCNc1nc(N2CCCCC2)nc(N2CCCCC2)n1	107.7	80.8	-49.6	105.8
CSc1ccccc1NC(=O)CSc1ccccc1	125.8	85.5	-26.9	·
Cc1cc(S(=O)(=O)c2cc3ccc(O)c(C)c3oc2=O)ccc1F	103.9	85.0	-9.5	112.7
Cc1ccc(S(=O)(=O)N(CC(=O)N2CCc3ccccc3C2)c2ccc(C)c(C)c2)cc1	107.0	99.1	6.0	101.5
Cc1cc(C)cc(NC(=O)CNS(=O)(=O)c2ccc3nc(C)sc3c2)c1	117.0	85.5	-7.1	96.3

SMILES	Sa growth inh	Sa growth inh second temp	HCMV NEC inh	GIV Gai3 FP
COc1ccc2c(c1)C(C)=CC(C)(C)N2	78.1	61.2	-13.4	·
COc1ccc(CNCc2cccc(OC)c2)cc1	91.4	78.7	·	97.6
COc1ccc(NC(=O)[C@H]2O[C@@H]3OC(C)(C)O[C@@H]3[C@H]3OC(C)(C)O[C@H]32)c(OC)c1	107.9	87.5	-9.3	106.0
O=C(CSc1nnnn1-c1ccc(O)cc1)N1CCSC1c1ccccc1F (stereo not drawn)	105.1	70.0	-28.3	·
COc1ccc(CNC(=O)CCc2c(C)nc3c(c(C)nn3-c3ccccc3)c2C)cc1	101.6	84.3	-0.5	102.1
CCC(c1nnc(SCC(=O)NC23CC4CC(CC(C4)C2)C3)o1)N(C)C (stereo not drawn)	88.6	96.8	-4.0	·
CCOC(=O)C(C)Sc1nnc(CNC(=O)C23CC4CC(CC(C4)C2)C3)n1-c1ccccc1 (stereo not drawn)	101.7	98.5	·	105.9
CCCNC(=O)c1ccc2c(c1)N(Cc1ccccc1)C(=O)c1ccccc1S2	100.3	87.2	·	98.6
CN(Cc1ccccc1)C(=O)C1CCC(CNS(=O)(=O)c2ccc3c(c2)CCCC(=O)N3)CC1 (stereo not drawn)	111.7	96.0	-27.1	103.2&110.6
Cc1ccc(S(=O)(=O)C2(C(=O)N(C)Cc3ccccc3)CC2)cc1	107.1	86.8	-5.3	103.3

SMILES	Sa growth inh	Sa growth inh second temp	HCMV NEC inh	GIV Gai3 FP
O=c1c2ccccc2c(-c2ccccc2)nn1CCc1ccccn1	93.3	77.4	-6.1	·
CCOc1ccccc1NS(=O)(=O)c1c(C)nc2sccn2c1=O	108.3	83.4	·	105.9
CC(C)C(=O)OCC(=O)Nc1ccc(S(=O)(=O)N(C)C)cc1	97.9	91.3	-4.2	·
Cc1nn2c(=O)cc(COC(=O)CNC(=O)c3ccc(F)cc3)nc2s1	94.9	89.5	·	96.3
O/N=C1/CCSc2ccccc21	105.4	95.7	-21.3	103.4
CCc1ccccc1N1CC(c2nc3ccccc3n2Cc2cccc(C)c2)CC1=O (stereo not drawn)	91.2	66.2	-1.3	103.4
CCSc1nn(CC(=O)Nc2ccc(C(C)C)cc2)c(N)c1S(=O)(=O)c1ccc(C)cc1	·	·	-24.3	102.2
O=C(c1cccc(Br)c1)N(Cc1cccs1)Cc1cccs1	142.4	89.5	12.6	·
COc1cccc2c1cc1c(=O)n(CC(=O)NCCCN3CCN(C)CC3)nc(C)n12	104.3	88.8	-51.2	101.3
CCC1C(=O)CN1S(=O)(=O)c1ccc(C)cc1 (stereo not drawn)	90.8	94.2	-13.8	96.3

SMILES	Sa growth inh	Sa growth inh second temp	HCMV NEC inh	GIV Gai3 FP
COc1ccc2oc(=O)c(/C(C)=N/O)cc2c1	113.5	88.4	-17.5	·
CC(Sc1n[nH]c(N)n1)C(=O)OC1CCCCC1 (stereo not drawn)	81.4	90.3	-33.9	98.7
COCCCNc1nc2c(-c3cccc(Br)c3)nnn2c2ccccc12	100.3	84.6	-19.2	102.6
Cc1ccc(-c2noc(-c3c(C)cc(C)n(CC(=O)NCCc4ccccc4)c3=O)n2)cc1	·	·	-22.3	116.0
O=C1COc2ccc(S(=O)(=O)N3CCN(C(=O)Cc4ccccc4Br)CC3)cc2N1	·	·	-23.5	107.7
COc1cc(Cl)c(C)cc1NC(=O)CN1c2ccccc2S(=O)(=O)c2ccccc21	90.6	89.8	·	102.8
CCC(Sc1nnc(-c2ccc(OC)cc2)c(-c2ccc(OC)cc2)n1)C(=O)Nc1cccc(OC)c1 (stereo not drawn)	92.6	82.1	·	103.5
O=C(OCc1ccc2c(c1)OCO2)OCc1ccc2c(c1)OCO2	95.4	88.0	-33.0	102.8
COc1ccc(N2CCN(C(=O)c3ccccc3N(C)S(C)(=O)=O)CC2)cc1	94.3	79.3	-0.7	100.6
COc1cc(C(=O)Nc2nnc(CC(=O)NCc3ccccc3)s2)cc(OC)c1OC	·	·	-9.0	98.9
Cc1nc(=S)[nH]c(C)c1CCC(=O)N1CCN(S(=O)(=O)c2ccc(F)cc2)CC1	121.9	91.5	7.8	·
O=C(NCCCc1nc2ccccc2n1CCCOc1ccccc1)c1ccco1	92.3	70.8	·	103.6

# An excerpt from above in order of heavy-atom count, rising:
SMILES	Sa growth inh	Sa growth inh second temp	HCMV NEC inh	GIV Gai3 FP
O/N=C1/CCSc2ccccc21	105.4	95.7	-21.3	103.4
COc1ccc2c(c1)C(C)=CC(C)(C)N2	78.1	61.2	-13.4	·
Cc1ccc(C(=O)n2cnnc2N)cc1Cl	99.5	87.4	4.2	98.3
COc1ccc2oc(=O)c(/C(C)=N/O)cc2c1	113.5	88.4	-17.5	·
CC(Sc1n[nH]c(N)n1)C(=O)OC1CCCCC1 (stereo not drawn)	81.4	90.3	-33.9	98.7
CSc1ccccc1NC(=O)CSc1ccccc1	125.8	85.5	-26.9	·
C/C(N)=C(/C#N)C(=O)CSc1nncn1-c1ccccc1	96.8	99.7	0.3	·
O=C(c1cccc(Br)c1)N(Cc1cccs1)Cc1cccs1	142.4	89.5	12.6	·
Cc1ccc(S(=O)(=O)C2(C(=O)N(C)Cc3ccccc3)CC2)cc1	107.1	86.8	-5.3	103.3
O=c1c2ccccc2c(-c2ccccc2)nn1CCc1ccccn1	93.3	77.4	-6.1	·
Cc1cc(C)cc(NC(=O)CNS(=O)(=O)c2ccc3nc(C)sc3c2)c1	117.0	85.5	-7.1	96.3
Cc1cc(-c2ccc(S(=O)(=O)N3CCN(c4ccc(Cl)cc4)CC3)s2)on1	102.8	100.4	·	104.1
O=C(CSc1nnnn1-c1ccc(O)cc1)N1CCSC1c1ccccc1F (stereo not drawn)	105.1	70.0	-28.3	·
COc1ccc(NC(=O)[C@H]2O[C@@H]3OC(C)(C)O[C@@H]3[C@H]3OC(C)(C)O[C@H]32)c(OC)c1	107.9	87.5	-9.3	106.0
CCN1CCCC1CNC(=O)c1ccc2c(c1)[nH]c(=O)n2Cc1ccc(OC)cc1 (stereo not drawn)	97.2	87.3	0.9	99.8
CCc1ccccc1N1CC(c2nc3ccccc3n2Cc2cccc(C)c2)CC1=O (stereo not drawn)	91.2	66.2	-1.3	103.4
Cc1ccc(Nc2sc(C(=O)c3ccccc3)c(N)c2C(=O)Nc2ccc(Cl)cc2)cc1	122.2	76.3	·	108.3
CCOC(=O)C(C)Sc1nnc(CNC(=O)C23CC4CC(CC(C4)C2)C3)n1-c1ccccc1 (stereo not drawn)	101.7	98.5	·	105.9
CN(Cc1ccccc1)C(=O)C1CCC(CNS(=O)(=O)c2ccc3c(c2)CCCC(=O)N3)CC1 (stereo not drawn)	111.7	96.0	-27.1	103.2&110.6
CCC(Sc1nnc(-c2ccc(OC)cc2)c(-c2ccc(OC)cc2)n1)C(=O)Nc1cccc(OC)c1 (stereo not drawn)	92.6	82.1	·	103.5

# From PubChem BioAssay
